Source: PubChem (several laboratories)
Arbovirus anti – antivirals against arbovirus infection, primary screen, cell-based, full library, 10K replicate subset | arbovirus infection cell-based antiviral screen | inhibition, % at 10 µM | 200,000 compounds, 0.37% hits | AID 1251, 2008;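 active = inhibition from about 30%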;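 also: bluetongue infection of BSR cells; cell survival read as ATP light after 72 h; 0% = infected wells without compound and 100% = uninfected wells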
RecA splice inh – Mtb RecA intein splicing inhibitors, primary screen, biochemical, fluorescence, HTS | cell-free RecA intein splicing | inhibition, %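 (about 9 µM by stock and volumes)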 | 290,000 compounds, 0.75% hits; in the data active = inhibition above about 30%;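 also: 0% = vehicle wells and 100% = reference inhibitor control wells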
Target sequence (P9WHJ3 whole entry, looked up, canonical isoform): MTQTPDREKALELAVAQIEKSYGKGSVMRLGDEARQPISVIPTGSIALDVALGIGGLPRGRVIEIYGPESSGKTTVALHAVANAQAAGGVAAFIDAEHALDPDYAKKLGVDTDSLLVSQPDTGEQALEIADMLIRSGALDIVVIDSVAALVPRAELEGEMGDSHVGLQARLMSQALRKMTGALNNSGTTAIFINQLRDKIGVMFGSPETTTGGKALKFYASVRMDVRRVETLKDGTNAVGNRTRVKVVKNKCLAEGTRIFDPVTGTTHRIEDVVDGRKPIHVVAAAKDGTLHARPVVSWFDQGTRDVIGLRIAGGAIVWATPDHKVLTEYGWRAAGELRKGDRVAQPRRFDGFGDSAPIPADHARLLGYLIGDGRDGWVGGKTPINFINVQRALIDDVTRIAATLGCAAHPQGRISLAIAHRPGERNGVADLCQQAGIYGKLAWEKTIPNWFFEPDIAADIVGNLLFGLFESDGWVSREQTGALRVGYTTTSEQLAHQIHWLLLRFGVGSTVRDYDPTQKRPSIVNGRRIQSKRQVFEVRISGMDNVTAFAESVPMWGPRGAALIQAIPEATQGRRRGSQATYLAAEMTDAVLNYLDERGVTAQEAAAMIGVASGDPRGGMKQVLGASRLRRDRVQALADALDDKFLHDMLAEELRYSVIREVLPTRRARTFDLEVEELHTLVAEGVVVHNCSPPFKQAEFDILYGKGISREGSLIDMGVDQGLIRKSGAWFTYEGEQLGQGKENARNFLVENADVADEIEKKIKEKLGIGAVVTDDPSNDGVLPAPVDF
Mtb bLac sens – beta-lactam sensitization of Mtb H37Rv, H37Rv | M. tuberculosis H37Rv growth with meropenem, percent inhibition; hits of this screen are not shown here | inhibition, % at 25 µM | 330,000 compounds, 0.27% hits | AID 434955, 2010;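 active = about 74% or more and at least 40 points above the plate without the antibiotic, then above 30% in a dose series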;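 also: growth measured after seven days incubation then overnight dye step; 0% = bacteria only wells and 100% = bacteria with antibiotic; twin plates without the antibiotic show which effects depend on it; some results filed as inactive read as strong as hits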
Mtb H37Rv – M. tuberculosis H37Rv growth inhibitors, H37Rv strain (AID 1626). 220,000 compounds, 0.95% hits. inhibition, % at 10 µM; hits with a dose series show IC50 in µM. M. tuberculosis H37Rv growth inhibition; higher % means a stronger effect;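 active = confirmed in a dose series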;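 also: bacteria incubated seven days before Alamar blue readout; 0% = bacteria only wells and 100% = bacteria with antibiotic wells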
YopH inh – YopH tyrosine phosphatase inhibitors, primary screen, biochemical, fluorescence Ex485/Em525 | inhibition, %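 (about 10 µM by stock and volumes)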 | 140,000 compounds, 0.16% hits | AID 898, 2007;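 active = inhibition of 50% or more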;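 also: controls were vehicle for no effect and minimum signal wells for full effect; inactives centre near -20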
Arbovirus anti repeat – further read-out of Arbovirus anti, marked with its call; inhibition, %; measured here: 10K subset replicate screen; many hits read low in the repeat;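 first of two repeat runs on a subset; 0% = infected and 100% = uninfected wells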
* hit, by the source's call; i = inactive; . = not tested or not shown; & = joins results of further samples. Not all compounds are listed; rates above refer to the full screens.

SMILES	Arbovirus anti	RecA splice inh	Mtb bLac sens	Mtb H37Rv	YopH inh	others
CCCn1c(C(C)NC(=O)c2ccccc2)n[nH]c1=S (stereo unspecified)	.	0.2	-2	13%	.
CCCCn1c(NC(=O)c2ccco2)c(S(=O)(=O)c2ccc(C)cc2)c2nc3ccccc3nc21	-14	57*	.	2%	15
O=C1NN=C(c2ccc(Cl)cc2)CC1c1c[nH]c2ccccc12 (stereo unspecified)	9	3.1	11	19%	.
O=C(CCN1C(=O)/C(=C/c2ccc3c(c2)OCO3)SC1=S)Nc1ccc(C(=O)O)cc1	.	13	1	.	.
COc1ccc(N(Cc2nnc3n2CCCCC3)C(=O)Nc2ccccc2)cc1	-1	-0.4	-9	-1%	.
Cc1ccc(CNS(=O)(=O)c2c(C(=O)N3CCCCCC3)c(C)n(C)c2C)cc1	.	-2.7	-2	.	.
COc1ccc(NC(=O)CCC(=O)N(Cc2ccc(OC)c(OC)c2)c2nccs2)cc1	-11	-0.3	0	1%	-39
Cn1c(=O)[nH]c(=O)c2c1nc(N1CCCCC1)n2CC(O)COc1ccccc1 (stereo unspecified)	.	-1.1	2	.	.
Cc1coc2cc3oc(=O)c(CCC(=O)NCCN4CCOCC4)c(C)c3cc12	.	6.2	-3	.	.
O=C(COc1ccc(Cl)cc1)N1CCN(Cc2ccc3c(c2)OCO3)CC1	.	1.2	-11&11	.	.
C/C(=N/NC(=O)c1ccc(Cl)s1)c1cccnc1	.	-2.9	12	.	.
CCc1ccc(OCC(=O)N/N=C(\C)c2ccc(-n3ccnc3)cc2)cc1	-3	4.5	36	-4%	-24
Cc1ccc(NC(=O)COC(=O)CCc2c[nH]c3ccccc23)cc1[N+](=O)[O-]	-4	1.3	99	71%	-57
CCOc1ncccc1C(=O)NCc1ccccc1F	4	1.5	0	7%	.
O=C(NCCCN1CCOCC1)c1ccc(S(=O)(=O)N2CCOCC2)cc1	3	-2.5	-1	-11%	-13
CCN1CCN(c2ccc(S(=O)(=O)N3CCCCC3)cc2NC(=O)CC(NC(C)=O)c2ccccc2)CC1 (stereo unspecified)	.	10	-2	.	.
CCC(=O)Nc1ccc(C(=O)CSc2nnc(CNc3ccc(Cl)cc3)o2)cc1OC	1	3.7	7	-1%	-10
NCC1(c2ccc3c(c2)OCCO3)CCCC1	-4	1.4	-2	2%	7
COc1ccc(CNC(=O)c2ccc(Cn3cc(Cl)cn3)o2)cc1	.	2.8	1	.	.
c1ccc(Cc2noc(CN3CCCN(C4Cc5ccccc5C4)CC3)n2)cc1	-19	1.4	-8	2%	.

At a glance, 19 of the compounds above.
SMILES	Arbovirus anti	RecA splice inh	Mtb bLac sens	Mtb H37Rv	YopH inh	others
CCCn1c(C(C)NC(=O)c2ccccc2)n[nH]c1=S (stereo unspecified)	.	0.2	-2	13%	.
CCCCn1c(NC(=O)c2ccco2)c(S(=O)(=O)c2ccc(C)cc2)c2nc3ccccc3nc21	-14	57*	.	2%	15
O=C1NN=C(c2ccc(Cl)cc2)CC1c1c[nH]c2ccccc12 (stereo unspecified)	9	3.1	11	19%	.
O=C(CCN1C(=O)/C(=C/c2ccc3c(c2)OCO3)SC1=S)Nc1ccc(C(=O)O)cc1	.	13	1	.	.
COc1ccc(N(Cc2nnc3n2CCCCC3)C(=O)Nc2ccccc2)cc1	-1	-0.4	-9	-1%	.
Cc1ccc(CNS(=O)(=O)c2c(C(=O)N3CCCCCC3)c(C)n(C)c2C)cc1	.	-2.7	-2	.	.
COc1ccc(NC(=O)CCC(=O)N(Cc2ccc(OC)c(OC)c2)c2nccs2)cc1	-11	-0.3	0	1%	-39
Cn1c(=O)[nH]c(=O)c2c1nc(N1CCCCC1)n2CC(O)COc1ccccc1 (stereo unspecified)	.	-1.1	2	.	.
Cc1coc2cc3oc(=O)c(CCC(=O)NCCN4CCOCC4)c(C)c3cc12	.	6.2	-3	.	.
O=C(COc1ccc(Cl)cc1)N1CCN(Cc2ccc3c(c2)OCO3)CC1	.	1.2	-11&11	.	.
C/C(=N/NC(=O)c1ccc(Cl)s1)c1cccnc1	.	-2.9	12	.	.
CCc1ccc(OCC(=O)N/N=C(\C)c2ccc(-n3ccnc3)cc2)cc1	-3	4.5	36	-4%	-24
Cc1ccc(NC(=O)COC(=O)CCc2c[nH]c3ccccc23)cc1[N+](=O)[O-]	-4	1.3	99	71%	-57
CCOc1ncccc1C(=O)NCc1ccccc1F	4	1.5	0	7%	.
O=C(NCCCN1CCOCC1)c1ccc(S(=O)(=O)N2CCOCC2)cc1	3	-2.5	-1	-11%	-13
CCN1CCN(c2ccc(S(=O)(=O)N3CCCCC3)cc2NC(=O)CC(NC(C)=O)c2ccccc2)CC1 (stereo unspecified)	.	10	-2	.	.
CCC(=O)Nc1ccc(C(=O)CSc2nnc(CNc3ccc(Cl)cc3)o2)cc1OC	1	3.7	7	-1%	-10
NCC1(c2ccc3c(c2)OCCO3)CCCC1	-4	1.4	-2	2%	7
COc1ccc(CNC(=O)c2ccc(Cn3cc(Cl)cn3)o2)cc1	.	2.8	1	.	.

(cont.)
SMILES	Arbovirus anti	RecA splice inh	Mtb bLac sens	Mtb H37Rv	YopH inh	others
Cc1ccc2nc(-c3ccccn3)cc(C(=O)N3CCN(c4ncccn4)CC3)c2c1	-2	-1.4	1	7%	-21
CCOC(=O)c1cc2oc(C)cc2n1CC(=O)OC1CCCCC1	-13	7.2	3	4%	20
CC(C(=O)NC(=O)NC1CCCCC1)N1CCN(c2ccccn2)CC1 (stereo unspecified)	3	2.5	-5	0%	-129
Cc1ccnc(NC(=O)c2ccc(NC(=O)CC3SC(N4CCCC4)=NC3=O)cc2)c1 (stereo unspecified)	.	-1.8	-6	.	.
COc1ccc(OCCOC(=O)CNC(=O)c2cccc(C)c2)cc1	.	-0.1	-5	.	.
O=C(C1CCCCC1)N1CCC(CO)(Cc2ccccc2Cl)CC1	-5	0.9	-3	12%	.
O=C(COC(=O)/C=C/C(=O)N1CCN(c2ccccc2)CC1)NCc1ccc(F)cc1	2	1.6	-12	1%	.
CCOC(=O)Cn1nc(NC(=O)c2ccc3c(c2)OCO3)cc1C	.	0.6	5	.	.
O=C(CSc1nc2ccc([N+](=O)[O-])cc2[nH]1)c1ccc2ccccc2c1	1	-3.4	-5	13%	-18
CCC(C)Sc1nnc(CNC(=O)C23CC4CC(CC(C4)C2)C3)n1C1CCCCC1 (stereo unspecified)	6	1.9	4	.	-18
CCOC(=O)c1c(C)[nH]c(O)c1C=Nc1ccccc1	3	-2.9	4	1%	-26
Cc1cc(C(=O)c2ccccc2)nc2ccccc12	-13	-2.9	-1	-5%	-19
Cc1cccc(C)c1OCCCCN1CCCCC1	.	-0.1	-4	.	.
COc1ccc2c(COC(=O)CCS(=O)(=O)c3ccc(C)cc3)cc(=O)oc2c1	.	-4.1	1	.	.
Cc1ccnc(Nc2nc(-c3ccccc3)cs2)c1	.	2.0	4	.	.
CC(=O)Nc1cc(NC(C)=O)cc(C(=O)OCC(=O)c2ccc3c(c2)NC(=O)CO3)c1	.	3.2	-1	.	.
Cc1ccc(C(C)C)cc1OCC(=O)NC1CCCCCCC1	.	7.3	9	.	.
OCC[C@H]1C[C@@H](O)[C@H](O)[C@@]2(CCCO2)O1	.	-1.0	-5	-6%	.
CC(=O)c1cccc(NC(=O)COC(=O)CCc2ccc(S(=O)(=O)N3CCOCC3)cc2)c1	14	-0.3	1	2%	.
COc1ccc(CCNC(=O)COc2ccc(-c3ccc(C)cc3)cc2)cc1OC	0	.	16	4%	-20

Entries listed so far containing a nitro group on carbon (2):
SMILES	Arbovirus anti	RecA splice inh	Mtb bLac sens	Mtb H37Rv	YopH inh	others
Cc1ccc(NC(=O)COC(=O)CCc2c[nH]c3ccccc23)cc1[N+](=O)[O-]	-4	1.3	99	71%	-57
O=C(CSc1nc2ccc([N+](=O)[O-])cc2[nH]1)c1ccc2ccccc2c1	1	-3.4	-5	13%	-18

Remaining list, next part
SMILES	Arbovirus anti	RecA splice inh	Mtb bLac sens	Mtb H37Rv	YopH inh	others
CCc1ccccc1NC(=O)Nc1cccs1	-3	0.7	-1	10%	.
O=C(C1CCCN(Cc2ccccc2F)C1)N1CCCC1 (stereo unspecified)	.	-1.0	-4	.	.
Cc1ccnc(N2C(=O)c3ccccc3C2Nc2ccc3c(c2)OCCO3)c1 (stereo unspecified)	10	-3.4	0	11%	.	Arbovirus anti repeat=-2
COc1ccc(Cc2nc3ccccc3n2CC(=O)N/N=C/c2ccc(O)cc2)cc1OC	-1	-0.4	3	-1%	14
CCOc1cccc(C(=O)Nc2cccc(NC(=O)c3ccco3)c2)c1	-18	9.1	2	-5%	.
O=C(CCC1CCCC1)Nc1ccccc1-c1ccccc1	-3	3.3	5	1%	-17
CCSc1nnc(NC(=O)CSc2nc(C)cc(C)n2)s1	2	2.2	-5	-9%	-16
Cc1ccc(/C=N/NC(=O)Cc2cccs2)o1	9	1.8	3	4%	-25
Cc1cc(=O)oc2cc(OC(C)C(=O)N3CCCc4ccccc43)ccc12 (stereo unspecified)	-15	.	-5	9%	-32
Cc1c(Cc2ccccc2)c(=O)oc2c(C)c(OCC(=O)N[C@@H](Cc3ccccc3)C(=O)O)ccc12	.	0.8	-1	.	.
Cc1csc(NC(=O)c2ccc(=O)[nH]c2)n1	.	-1.4	0	.	.
Cc1ccc2c(CNCc3ccccc3)cc(=O)oc2c1	.	-2.2	5	.	.
CSc1nc(C)cc(NC(N)=O)n1	-2	2.6	-6	2%	-26
O=C(CCNS(=O)(=O)c1ccc(Br)cc1)NCCc1ccccc1	.	-5.3	-8	.	.
O=C(Nc1cc(Cl)ccc1Oc1ccccc1)c1cnccn1	8	-4.5	8	1%	-27
Cc1nc2nc(C)c(CCC(=O)O)c(C)n2n1	8	-0.3	14	-4%	7
O=C(NC(=S)NNC(=O)c1ccccc1O)c1ccc([N+](=O)[O-])cc1	.	25	30	.	.
O=C(CCC1CCCN(Cc2ccc(O)c(Cl)c2)C1)NCc1ccccc1F (stereo unspecified)	0	-0.4	0	1%	.
O=C(CSc1cn[nH]n1)Nc1ccccc1F	.	0.0	-10	.	.
CC(=O)Nc1cccc(N/C=C(\C=O)c2nc3ccccc3o2)c1	-1	0.3	1	-1%	-18
CC(C)Cc1nnc(NC(=O)CCC(=O)Nc2ccccc2)s1	.	1.6	5	.	.
O=C(CSc1nnc(CCc2ccccc2)n1-c1ccc(Cl)cc1)NCc1ccccc1	3	11	-9	.	7
CC1(C)CC(=O)C=C(NCCc2c[nH]c3ccccc23)C1	.	-3.7	-2	-10%	.
COC(=O)C1=CN(CCCN2CCCC2=O)C=C(C(=O)OC)C1c1ccccc1C(F)(F)F	1	i	-5	-12%	-14	Arbovirus anti repeat=-2
O=C(NC(Cc1ccc2c(c1)OCO2)C(=O)N1CCCC1C(=O)O)c1ccccc1 (stereo unspecified)	5	-0.3	7	-14%	-49	Arbovirus anti repeat=1
COc1ccc(C(=O)Nc2ccc(N3CCOCC3)cc2)cc1OC	-3	-1.0	0	-6%	0
Cc1ccc(C)c(OCCC(=O)OCC(=O)NC2CCS(=O)(=O)C2)c1 (stereo unspecified)	.	4.3	-1	.	.
CCC(C)NCCCOc1ccc(C)cc1OC (stereo unspecified)	0	-1.7	-3	1%	.
CNC(=S)N(CCc1c(C)[nH]c2ccc(C)cc12)Cc1ccc(OC)c(OC)c1	7	4.1	2	.	-6
COc1cc(OC)cc(-c2nc(-c3ccc(Br)cc3)no2)c1	5	1.3	-1	4%	-55	Arbovirus anti repeat=-5
